Source: PubChem BioAssay (several laboratories)
T cruzi repl: inhibitors of intracellular T. cruzi growth, primary screen, luminescence, NIH3T3 host cells | actives 1.4% (n = 300,000) | T. cruzi beta-gal in NIH3T3, 90 h | inhibition, % (concentration not given with the values) | AID 1885, 2009;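 active means mean inhibition across valid replicates above about 55%, limit read from the data; inconclusive means mean below that limit but half or more replicates reach it; inactive means mean below it, under half of replicates reach it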;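 further: signal also drops with host cell toxicity which is not excluded here; 0% = plate median of DMSO wells and 100% = zero luminescence signal; higher percent means less beta-gal luminescence so fewer parasites; stock transfer was 50 nL into about 50 µL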
rRNA inh HTS: reduced GFP signal of wild-type E. coli, primary screen, bacterial rRNA inhibitor project, GFP/RFP fluorescence, OD600, single point | E. coli WT GFP vs humanized-ribosome RFP mutants, 24 h; hits give low values; DMSO median 0, no signal -100 | GFP signal change (wild-type ribosome), % (no concentration beside the values) | actives 1.6% (n = 350,000);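 active means significant combined selectivity score with lowered wild-type GFP, culture density cut under 30%, mutant RFP and density less affected; inactive means any of these conditions unmet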; further: one replicate is shown; some compounds called inactive have numbers as strong as hits
AF4-AF9 inh: inhibitors of AF4 peptide binding to AF9, primary screen, biochemical, AlphaScreen, biotin-AF4 peptide, FLAG-AF9, single point; AID 651704, 2012; Protein AF-9 (Homo sapiens), P42568; inhibition, % at 10 µM; actives 0.47% (n = 350,000);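 active means every replicate reaching a set inhibition limit, whatever the replicate mean, cut at about 25% in these data; inconclusive means mean inhibition reaches that limit but some replicates miss it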;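 further: 0% = plate neutral control median and 100% = total signal loss; the record names both 10 and 1 µM as test concentration; the first replicate is given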
Target sequence (P42568 whole entry, looked up): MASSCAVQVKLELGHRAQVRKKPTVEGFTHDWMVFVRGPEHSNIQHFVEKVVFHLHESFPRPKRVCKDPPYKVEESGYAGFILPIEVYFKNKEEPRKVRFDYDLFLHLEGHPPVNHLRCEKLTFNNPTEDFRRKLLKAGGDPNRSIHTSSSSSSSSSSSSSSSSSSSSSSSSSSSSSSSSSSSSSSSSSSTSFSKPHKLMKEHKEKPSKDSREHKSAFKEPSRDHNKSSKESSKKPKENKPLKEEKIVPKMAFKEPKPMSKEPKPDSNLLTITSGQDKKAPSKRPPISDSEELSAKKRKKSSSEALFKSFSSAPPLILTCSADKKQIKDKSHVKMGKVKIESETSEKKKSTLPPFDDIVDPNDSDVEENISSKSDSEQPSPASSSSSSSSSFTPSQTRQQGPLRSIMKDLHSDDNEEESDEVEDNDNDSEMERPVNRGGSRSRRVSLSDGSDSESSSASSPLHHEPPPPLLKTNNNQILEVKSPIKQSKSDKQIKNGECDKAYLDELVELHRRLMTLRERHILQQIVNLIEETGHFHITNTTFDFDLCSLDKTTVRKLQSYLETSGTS
E coli growth: E. coli growth inhibition, primary screen, OD600; Escherichia coli growth, 23 h; hits give low values; OD600 absorbance (no concentration beside the values); actives 0.21% (n = 330,000);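 active means OD600 absorbance below the run mean of sample wells minus 3.6 SD, in any replicate, cut at about 0.56 in these data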;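 further: stock transfer was 300 nL into about 60 µL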
UCH37 inh: inhibitors of human UCH37 deubiquitinase, primary screen, biochemical, Ub-AMC cleavage, fluorescence. Ubiquitin carboxyl-terminal hydrolase isozyme L5 (Homo sapiens), Q9Y5K5. purified proteasome/UCH37. inhibition, % (no concentration beside the values). actives 0.33% (n = 330,000);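 active means mean of two replicates above 20%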;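 further: 0% = compound-free wells with enzyme and 100% = wells lacking proteasome; stock transfer was 100 nL into about 20 µL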
Target sequence (Q9Y5K5 whole entry, looked up): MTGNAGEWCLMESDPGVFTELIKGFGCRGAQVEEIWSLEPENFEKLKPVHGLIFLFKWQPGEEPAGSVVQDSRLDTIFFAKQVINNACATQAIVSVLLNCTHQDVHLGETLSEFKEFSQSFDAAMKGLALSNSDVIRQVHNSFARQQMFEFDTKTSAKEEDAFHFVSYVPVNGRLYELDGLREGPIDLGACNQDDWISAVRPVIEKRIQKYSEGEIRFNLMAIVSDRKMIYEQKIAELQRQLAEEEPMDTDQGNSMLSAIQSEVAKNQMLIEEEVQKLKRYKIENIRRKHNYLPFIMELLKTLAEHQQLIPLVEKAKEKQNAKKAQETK
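Material: human UCH37 enzyme supplied as purified proteasome complex. Measure: % inhibition of Ub-AMC cleavage fluorescence. Medium: pH 7.4 Tris-HCl (50 mM) with ovalbumin, ATP-MgCl2, DTT. Times: 30 min preincubation with enzyme, 25 min cleavage at room temperature. Detection: AMC fluorescence intensity at 355/460 nm.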
FGF22 binding: binders of human FGF22 protein, primary screen, FGF22 synaptogenesis inhibitor project, biophysical, thermal shift, single point; AID 651658, 2012; Fibroblast growth factor 22 (Homo sapiens), Q9HCT0; calls only at 9.99 µM; actives 1.5% (n = 340,000); recombinant FGF22 thermal shift, SYPRO orange fluorescence; percent of sucrose octasulfate shift, DMSO zero;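 active means melting point raised past a set limit in the mean and every replicate; inconclusive means no clear call; three in four hits are not shown here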
Target sequence (Q9HCT0 whole entry, looked up): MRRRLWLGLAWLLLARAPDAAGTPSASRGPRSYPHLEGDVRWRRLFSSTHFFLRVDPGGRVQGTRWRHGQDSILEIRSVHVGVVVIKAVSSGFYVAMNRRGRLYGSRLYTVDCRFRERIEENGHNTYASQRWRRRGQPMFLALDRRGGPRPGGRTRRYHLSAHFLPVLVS
Bfl-1 A1 inh: caspase 3/7 activation in MEF A1-2A-BIM cells, primary screen, A1 inhibitor project, cell-based, luminescence, HTS; Caspase-Glo 3/7 luminescence, 3 h; percent of clofoctol response, vehicle zero; caspase activation, % (test concentration not listed); actives 0.066% (n = 330,000);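 active means over half of replicate activation scores above 10%, or exactly half above 10 with the replicate mean above 10; inconclusive means replicate mean below 10 yet half the replicates above 10; inactive means over half of replicates below 10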;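 further: wells of about 30 µL received 50 nL stock; many hits fall short of the cut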
Beta cell apopt: inhibitors of cytokine-induced beta cell apoptosis, primary screen, luminescence | AID 435005, 2010 | INS-1E cytokine-induced death, ATP luminescence, 48 h; percent of positive-control rescue, neutral wells zero | actives 0.8% (n = 300,000) | protection from apoptosis, % (test concentration not listed);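 active means all replicates at 75% or more, or half of them and the mean; inconclusive means half reach 75% but not the mean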;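 further: 0% = cytokine-treated negative control wells and 100% = positive control rescue; higher means more ATP so stronger rescue from cytokine killing; wells of about 40 µL received 100 nL stock; the first replicate is given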
rRNA inh HTS OD600: also measured in rRNA inh HTS; calls as there; OD600 change, %; measured here: OD600 growth;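 optical density of the mix in the first replicate; 0 = DMSO median and -100 = no signal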
rRNA inh HTS RFP: further read-out of rRNA inh HTS, marked with its call; RFP signal change, %; measured here: RFP humanized mutant strains;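 first replicate; 0 = DMSO median and -100 = no signal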
Active calls of the source: *; i = inactive; ? = inconclusive; . = not tested or not shown; & = joins results of further samples. Some of the compounds tested; rates above refer to the full screens.

SMILES	T cruzi repl	rRNA inh HTS	rRNA inh HTS OD600	rRNA inh HTS RFP	AF4-AF9 inh	E coli growth	UCH37 inh	FGF22 binding	Bfl-1 A1 inh	Beta cell apopt
Nc1cc(=O)[nH]c(SCC(=O)NNC(=O)c2ccccc2)n1	-2.0	10.7	13.7	2.3	-2.7	0.706	0.3	i	0.2	-0.3
O=C(NCCc1c[nH]c2ccccc12)c1ccccc1	-15.1	-2.3	-7.0	-0.9	2.3	0.629	-0.5	i	-1.0	1.4
COC(=O)C1=C(C)NC(=O)C1(NC(=O)CN1CCCC1=O)C(F)(F)F (centres undefined)	-30.0	.	.	.	.	0.716	-0.4	.	-5.2	.
COc1ccc(CNC(=O)CN(c2cccc([N+](=O)[O-])c2)S(C)(=O)=O)cc1	-2.6	.	.	.	-2.4	0.672	2.0	.	0.9	-0.3
COc1cccc(N2C(N)=NC(N)=NC2(C)C)c1	-12.6	.	.	.	.	0.739	5.3	.	-0.3	4.2
O=C(Cn1c(NCCCO)nc2ccccc21)c1ccco1	-22.2	8.2	11.5	-0.5	.	0.677	4.2	.	-0.2	-3.3
Cc1ccc(-n2ncc3c2CC(C)(C)CC3NC(=O)CCc2ccc(=O)[nH]n2)cc1 (centres undefined)	-7.5	1.6	4.3	-2.6	0.0	0.702	3.5	i	?	-5.2
CCCNC(=O)N1CCCC(C(N)=O)C1 (centres undefined)	1.2	8.8	3.6	-2.4	2.4	0.666	1.1	i	0.1	-3.3
COc1cccc(CNC(=O)CSc2nnc3c(n2)[nH]c2ccc(OC)cc23)c1	4.6	2.4	5.7	1.3	-4.6	0.7	2.9	i	0.6	2.7
CC1=C(C(=O)Nc2cc(-c3cccc(F)c3)[nH]n2)C2(CCCCC2)OC1=O	8.6	-37.5	-46.1	-10.1	-2.9	0.702	5.2	i	0.0	1.6
CN(C)C(CNC(=O)c1cc(S(=O)(=O)N2CCOCC2)ccc1F)c1cccs1 (centres undefined)	.	11.0	12.1	-1.0	-3.7	0.7	0.6	i	0.7	-1.2
O=C(CN1C(=O)NC2(CCc3ccccc3C2)C1=O)NCC(F)(F)F (centres undefined)	-13.7	11.0	15.0	22.8	-4.8	0.667	1.6	i	0.0	-4.7

Rewritten with two lines to a compound: two of the compounds above
Every second line gives: T cruzi repl	rRNA inh HTS	rRNA inh HTS OD600	rRNA inh HTS RFP	AF4-AF9 inh	E coli growth	UCH37 inh	FGF22 binding	Bfl-1 A1 inh	Beta cell apopt
- Cc1ccc(-n2ncc3c2CC(C)(C)CC3NC(=O)CCc2ccc(=O)[nH]n2)cc1 (centres undefined)
→ -7.5	1.6	4.3	-2.6	0.0	0.702	3.5	i	?	-5.2
- CCCNC(=O)N1CCCC(C(N)=O)C1 (centres undefined)
→ 1.2	8.8	3.6	-2.4	2.4	0.666	1.1	i	0.1	-3.3

Continuation:
SMILES	T cruzi repl	rRNA inh HTS	rRNA inh HTS OD600	rRNA inh HTS RFP	AF4-AF9 inh	E coli growth	UCH37 inh	FGF22 binding	Bfl-1 A1 inh	Beta cell apopt
COCCn1c(-c2ccc(F)cc2)nc2cccnc21	-4.4	13.8	24.3	3.0	-0.4	0.699	-1.1	i	0.2	-5.1
CNC[C@H](NC[C@@H](NCCCc1ccccc1)c1ccccc1)[C@H](C)O	-1.5	2.8	5.7	-5.9	4.2	.	4.2	i	0.7	1.9
O=C(CC(=O)c1ccccc1)Nc1ccc(Cl)cc1	8.9	6.7	2.9	2.1	-0.9	0.584	-1.3	i	-2.2	8.2
N#C/C(=C/c1ccccc1)C(=O)OCC(=O)Nc1ccccc1[N+](=O)[O-]	.	14.9	7.6	0.8	0.0	0.721	1.2	i	0.8	-5.1
COc1ccc(N(C(=O)COc2ccccc2OC)S(=O)(=O)c2ccc(C)cc2)cc1	-1.0	.	.	.	.	0.749	5.2	.	0.1	-0.6
COC(=O)[C@H](Cc1ccc(O)cc1)NC(=O)Cn1cnc2c(SC)nc(N)nc21	.	9.5	28.6	0.0	-0.5	0.669	0.8	i	.	.
CCOC(=O)N1CCN(C(=O)CCCn2nc(C)c3sc4ccccc4c3c2=O)CC1	-1.9	.	.	.	.	0.673	1.4	.	0.3	0.7
O=C(NC12CC3CC(CC(C3)C1)C2)c1ccc([N+](=O)[O-])o1	38.1	-6.5	-3.9	-2.2	-4.8	0.683	4.2	i	0.1	-29.3
COc1ccccc1N1CCN(C(=O)c2ccc(CSc3ccccc3)cc2)CC1	3.2	.	.	.	.	0.742	2.5	.	0.3	7.0
Cc1cccc(C)c1N1C(=O)CC(N2CCSCC2)C1=O (centres undefined)	-1.1	8.2	10.0	-0.1	0.4	0.686	2.3	i	1.2	-12.4
COc1ccc(-n2c(C)cc(C)c(C(C)=O)c2=S)cc1	-7.7	2.2	8.5	0.5	2.6	0.714	6.8	i	0.0	-3.5
Cc1ccc(C(=O)OCC(=O)Nc2ccc(Cl)cn2)s1	.	6.6	20.2	-0.4	0.8	0.678	1.5	i	0.9	3.1
CCOC(=O)c1cc(-c2ccccc2C)nn1CC1CC(c2ccc(OC)cc2)=NO1 (centres undefined)	.	-5.5	-1.4	6.7	-27.5	0.702	-1.1	i	-0.9	4.1
CC(C)N1C(=O)/C(=C\c2nc3ccccc3c(=O)[nH]2)c2ccccc21	.	-0.9	7.9	2.3	26.2*	0.745	1.2	i	-0.2	1.2
CC(=O)N(CCCN(C)C)CCC(C)CCC=C(C)C (centres undefined)	65.2*	.	.	.	.	0.653	-0.2	.	0.2	2.5
Cc1ccccc1NC(=S)NCc1ccc2[nH]c3c(c2c1)CCCC3	7.7	9.8	-9.4	-0.8	3.9	0.779	7.4	i	1.1	.
CC(Sc1nc(-c2ccccc2)cc(C(F)(F)F)n1)C(=O)Nc1ccc2c(c1)OCO2 (centres undefined)	1.2	.	.	.	.	0.746	-0.5	.	1.2	4.5
COCCNC(=O)C(=O)N/N=C/c1cccs1	1.6	11.0	14.4	0.3	-8.0	.	.	i	-0.6	-2.1
NC(=O)c1ccc(NC(=O)COC(=O)CCC2CCCCC2)cc1	.	8.2	12.4	1.9	-2.5	0.669	2.5	i	0.9	8.0
Cc1cc2oc(C(=O)Nc3cccnc3)c(C)c2cc1C	-8.9	12.1	18.9	-0.4	-3.8	0.689	-2.9	i	-0.3	-4.2
Cc1ccc(OC(=O)c2ccncc2)c(C)c1	2.8	0.4	3.9	-2.1	4.8	0.699	-0.1	i	0.3	-6.7
Cc1cc(-c2nnc(SCC(=O)Nc3ccc(Cl)cn3)n2N)n[nH]1	7.8	10.4	11.7	-0.9	-5.4	0.594	-0.6	i	0.2	2.8
O=C(Nn1c(-c2ccccc2)nc2ccccc2c1=O)c1ccc([N+](=O)[O-])cc1	-5.5	2.0	-0.1	-2.9	1.0	.	.	i	-0.3	-11.9
O=C(N/N=C/c1ccncc1)c1ccccn1	-7.0	-1.2	1.9	-1.2	-1.2	.	.	i	-4.3	4.3
COc1ccc(N2CC(C(=O)NCc3ccccc3)CC2=O)cc1 (centres undefined)	0.8	.	.	.	.	0.737	1.4	.	-0.2	-2.6
Cc1noc(C)c1CN1C(=O)c2ccc([N+](=O)[O-])cc2C1=O	-1.6	5.5	13.5	-3.2	3.8	0.607	0.3	i	0.3	-1.6
COC(=O)C(C)(C)NC(=O)c1cccs1	-3.0	2.2	2.5	-4.1	.	0.706	2.7	.	.	-16.1
CCC(=O)NCCc1nc2cc(NC(=O)c3ccccc3Cl)ccc2n1C	-4.8	5.1	12.1	1.7	0.4	0.617	1.1	i	0.0	-3.7
COc1ccc(C(=O)NNC(=O)Nc2ccc(Cl)cc2)cc1	2.6	6.4	5.8	-2.3	2.8	0.675	2.6	i	-0.3	.
CCCNC(=O)N(C)c1nncnc1C(=O)NC	-11.7	.	.	.	.	0.711	1.3	.	-0.3	-6.8
Cc1[nH]n(C)c(=O)c1C(=O)c1c(-c2c(Cl)cccc2Cl)noc1C	-11.9	23.4	10.3	1.8	-5.4	0.694	2.3	i	0.3	.
O=C(O)c1ccc(S(=O)(=O)N(Cc2ccccc2)C2CCCCC2)cc1	-12.2	7.5	15.8	1.9	-0.3	0.68	1.5	i	0.7	-0.2
CCN(CC)S(=O)(=O)c1ccc(C(=O)OCC(=O)NC2CCCC2)cc1	2.2	23.5	17.4	3.8	2.6	0.708	2.6	i	0.9	.
Nn1c(SCC(=O)NC2CCS(=O)(=O)C2)nnc1-c1cccs1 (centres undefined)	-4.2	9.2	11.2	4.2	-0.3	0.686	4.3	i	-0.1	-1.9
Cc1ccc(C(=O)Oc2cccc(-n3cnnn3)c2)cc1	-0.3	18.8	15.9	-1.0	-3.6	0.719	1.1	i	-0.1	-1.6
COc1cccc(CNC(=O)COC(=O)c2cccc(S(=O)(=O)N3CCN(C(C)=O)CC3)c2)c1	.	1.9	4.3	-0.2	5.4	0.71	5.1	i	-0.7	2.0
C=CCNC(=S)Nc1cccc([N+](=O)[O-])c1	-7.5	1.3	6.6	-1.1	-2.4	0.609	1.3	i	0.7	-9.4
CCn1nnc(NC(=O)CSc2ccc(Cl)cc2)n1	-7.7	5.9	6.6	-8.1	-0.1	0.719	0.7	i	-1.7	-14.4
COc1cc(O)sc1C=Nc1ccc(Cl)cc1Cl	22.8	4.5	4.7	-0.1	-2.9	0.671	3.2	i	-1.0	4.7
O=C(Nc1ccccc1)c1ccccc1OCc1ccc(S(=O)(=O)N2CCOCC2)cc1	26.1	15.5	18.8	0.0	-1.0	0.739	0.4	i	-0.7	.
CSc1nnc(N(CCC#N)CCC#N)s1	-1.2	.	.	.	.	0.715	1.8	.	0.0	-8.6
Cc1ccc(OCCOc2cccc(/C=N/NC(N)=O)c2)cc1	-9.1	8.8	9.3	-2.4	-5.9	.	.	i	2.1	-8.1
O=C(c1cc(-c2ccco2)nc2ccccc12)N1CCCC(C(F)(F)F)C1 (centres undefined)	.	1.7	4.5	1.6	-2.3	0.681	i	i	0.2	-4.9
Cc1cccc(CN2CCN(c3ncccn3)CC2)c1	13.6	7.1	11.4	1.3	2.5	0.641	1.2	i	-0.1	-1.2
COc1ccc(NC(=O)N(C)C[C@H]2Oc3c(NC(=O)Nc4c(C)noc4C)cccc3C(=O)N([C@H](C)CO)C[C@@H]2C)cc1	.	1.8&7.1	5.5&4.7	1.4&2.1	-1.1&-3.2	0.676	4.3	i	.	.
O=C(NCC(=O)N(Cc1ccccc1)C(C(=O)NCC1CCCO1)c1ccccc1)c1ccco1 (centres undefined)	-0.1	1.1	-0.6	-3.7	-1.4	0.705	1.6	i	-0.1	-7.9
CCn1cc(/C=C(\NC(=O)c2ccccc2OC)C(=O)N2CCN(C)CC2)c2ccccc21	24.5	-11.8	-4.8	-1.7	10.7	0.72	4.8	i	1.2	-5.9
